Source: PubChem BioAssay
TAR Tat displ = HIV-1 TAR-Tat binding disruption | HIV-1 TAR RNA, Tat peptide displacement FRET; hits give high values | z-score (concentration not given with the values) | hit rate 0.6% among 100,000 | AID 1259389;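 also: score is relative to mean and SD of negative controls; some compounds called inactive have numbers as strong as hits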
CDC25B CDK2 inh = human CDC25B-CDK2/CyclinA binding inhibition; hit rate 0.72% among 94,000; z-score (concentration not given with the values); HTRF CDC25B-CDK2/CyclinA binding, anti-His/anti-Flag; hits give high values;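 also: score is relative to mean and SD of negative controls; strong numbers were not always called active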
* marks the source's active call; other numbers are inactive results; . = no result given.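 The calls were made as follows: active = z-score from 3 up in half or more of its runs; inactive = the rest.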

molecule	TAR Tat displ	CDC25B CDK2 inh
C=CCNC(=O)NC(=O)C12CC3CC(CC(C3)C1)C2	.	-0.92
CN(C1CCCCC1)S(=O)(=O)c1ccc2c(c1)CCCC(=O)N2	0.53	.
CC1(C)Cc2c(c(-c3ccco3)nc3sc4c(N5CCCC5)ncnc4c23)CO1	1.8	1.9
Cc1ccc(N2C(=O)c3cccnc3C2Nc2ccc(Br)cc2)cc1 (configuration not stated)	3.1	-1.4
Cn1cccc1CN1CCc2nc(N3CCN(c4ccccc4F)CC3)ncc2C1	0.63	.
Cc1ccc(-c2cccc(=O)o2)cc1	-0.13	0.31
CCc1ccc(NS(=O)(=O)c2ccc3c4c2CC(=O)N4CC(C)S3)cc1 (configuration not stated)	0.12	.
CCOC(=O)c1ccc(N2C(=O)c3n[nH]c(C)c3C2c2ccc(F)cc2)cc1 (configuration not stated)	0.66	.
Brc1ccc(C2=Nn3c(nnc3C3CCCCC3)SC2)cc1	0.96	.
CCCCc1nn2c(=O)cc(COC(=O)c3ccc(C)cc3)nc2s1	0.18	.
Fc1ccc(OCc2nc3ccc(Cl)cc3[nH]2)cc1	1.2	-0.39
CN1C(=O)C(O)(CC(=O)c2cccnc2)c2ccccc21 (configuration not stated)	0.86	1.4
Cc1nc(-c2nnc(N)o2)c(-c2ccccc2)s1	1.8	.
c1ccc2[nH]c(CN3CCN(c4ncnc5sc6c(c45)CCCC6)CC3)nc2c1	0.2	-0.21
O=S(=O)(c1ccc(-n2cnnn2)cc1)N1CCN(c2cnccn2)CC1	0.91	-1.3
CC1CCCC(C)N1CCCNC(=O)C1CCCN(S(=O)(=O)N2CCOCC2)C1 (configuration not stated)	7.3	.
Cc1ccc(OCCn2c(SCCO)nc3c(N)ncnc32)cc1	2.2	-0.92
COc1ccc(-c2noc(NCCCN3CCCC3)n2)cc1	-1.1	.
N#C/C(=N\Nc1ccc(C(F)(F)F)cc1[N+](=O)[O-])C(N)=O	.	-1.7
Cc1nc2nc(-c3ccc(Cl)cc3)[nH]n2c(=O)c1C	2.2	-1.6
O=C(C1CC1)n1nc(-c2ccco2)nc1NCc1ccc(F)cc1	0.12	-1.5
COc1ccccc1N1CCN(Cc2nnc(-c3ccc4c(c3)OCO4)o2)CC1	1.2	-1.7
C#CCn1c(=O)c2c(ncn2C)n(C)c1=O	.	-2.4
O=C1c2ccccc2C(=O)N1CC1CN(CC(O)C(F)(F)F)CCO1 (configuration not stated)	.	-1.5
CCc1ccc(C2NC(=S)NC3=C2C(=O)CCC3)cc1 (configuration not stated)	.	0.85
COc1ccc(NC(=O)N2CCSc3ccccc32)c(OC)c1	1.6	.
Cn1ncc2c(Nc3cccc(Cl)c3)ncnc21	1.2	.
Fc1cccc(/C=C/c2nn3c(-c4cccnc4)nnc3s2)c1	1.3	-0.44
CCC1(C)CC(C(CC(=O)O)c2ccc(C)cc2)CCO1 (configuration not stated)	.	-0.58
Cc1cc(N2CCCC2)n2nc(C)c(-c3ccccc3)c2n1	-0.39	-2.2
O=C(O)/C(Cc1ccccc1[N+](=O)[O-])=N\Nc1ccccc1	.	-0.59
CC1CC(=O)c2cnc(N3CCc4ccccc43)nc2C1 (configuration not stated)	-0.45	-1.3
COc1ccc(-c2cc(N)n(S(=O)(=O)c3ccc(F)c(C)c3)n2)cc1OC	.	-1.9
CCCCN(CC)CCNC(=O)C1CCN(c2ncnc3c2nc2n3CCCCC2)CC1	0.39	.
CC(C)C(=O)N=C1NC(=O)CS1	0.88	-1.5
CC1=C(c2ccc(C)c(C)c2)S(=O)(=O)N(Cc2ccc(C(=O)NCC3CCCO3)cc2)C1=O (configuration not stated)	1.2	.
O=c1c(N2CCN(S(=O)(=O)c3ccc(F)cc3)CC2)coc2ccccc12	.	-1.4
CC1C(c2ccccc2)OCCN1C(=S)Nc1ccc(S(=O)(=O)N2CCCCC2)cc1 (configuration not stated)	.	-0.52
CCCN(Cc1cccs1)C(=O)Nc1ccc(Cl)cc1	-0.73	-1.1
O=S(=O)(O)c1cc(Br)ccc1I	.	-0.89

Molecules listed so far with bromine:
molecule	TAR Tat displ	CDC25B CDK2 inh
Cc1ccc(N2C(=O)c3cccnc3C2Nc2ccc(Br)cc2)cc1 (configuration not stated)	3.1	-1.4
Brc1ccc(C2=Nn3c(nnc3C3CCCCC3)SC2)cc1	0.96	.
O=S(=O)(O)c1cc(Br)ccc1I	.	-0.89

Further entries
molecule	TAR Tat displ	CDC25B CDK2 inh
Cc1ccc(C(CNC(=O)c2cc(=O)c3cc(Cl)ccc3o2)N(C)C)o1 (configuration not stated)	1.4	-0.13
N[C@@H](COP(=O)(O)O)C(=O)O	.	0.38
CC12CN3CC(C)(CN(C1)C3C1C(=O)Nc3ccccc31)C2 (configuration not stated)	-1.1	-0.28
CN(CC(=O)Nc1ncc(Br)s1)S(=O)(=O)c1cccc2nsnc12	.	-2.2
CCS(=O)(=O)c1nc(S(=O)(=O)c2ccc(Cl)cc2)c(NCC(C)C)s1	0.44	-0.57
O=c1c(-c2ccccc2)c(N2CCC(N3CCCCC3)CC2)c1=O	0.73	.
CC(=O)N1c2ccccc2CC1C(=O)NCCc1c(C)noc1C (configuration not stated)	0.95	.
Fc1ccc(NC(c2ccccc2)c2nnc(-c3ccccc3F)o2)cc1 (configuration not stated)	-0.62	-1.5
O=C(CCc1nnc2ccc(NCc3ccccc3)nn12)NC1CCCC1	1.1	.
Cc1cc(N2CCN(c3ccccc3)CC2)n2nc(-c3ccccc3C)nc2n1	1.3	0.19
Fc1ccc(-c2csc3ncnc(N4CCN(c5ccccn5)CC4)c23)cc1	0.33	-0.46
CC(C)Cn1cc(NC(=O)NCCCN2CCN(c3ccccc3)CC2)c2ccccc2c1=O	2.2	.
O=C(O)CCSc1nnc(-c2ccc(Br)cc2)o1	0.41	0.24
CCCn1c2ccccc2c2cnn(CC(=O)NCCN(C)C3CCCCC3)c(=O)c21	-0.39	.
COc1cc(NS(=O)(=O)c2cn(C)cn2)cc(OC)c1	0.39	.
c1csc(-c2nn[nH]n2)c1	.	0.47
CCOC(=O)/C(N=Nc1cccc(Cl)c1)=C(/O)CSc1ccc(Cl)cc1	.	-1.8
O=C(O)C1C2C=CC(C2)C1C(=O)N1CCOCC1 (configuration not stated)	0.13	-0.6
CN(C)C(=O)c1ccc2c(c1)nc(CN1CCN(C(=O)NC3CCCC3)CC1)n2C	0.77	.
Cc1cc(C)c2c(-n3cccc3)c(C(=O)NC(C)c3ccc4c(c3)OCCO4)sc2n1 (configuration not stated)	-2	0.06

A different layout for part of the listing above.
> O=C(O)C1C2C=CC(C2)C1C(=O)N1CCOCC1 (configuration not stated)
- TAR Tat displ: 0.13
- CDC25B CDK2 inh: -0.6
> CC(C)Cn1cc(NC(=O)NCCCN2CCN(c3ccccc3)CC2)c2ccccc2c1=O
- TAR Tat displ: 2.2
- CDC25B CDK2 inh: .
> Fc1ccc(NC(c2ccccc2)c2nnc(-c3ccccc3F)o2)cc1 (configuration not stated)
- TAR Tat displ: -0.62
- CDC25B CDK2 inh: -1.5

Additional records.
molecule	TAR Tat displ	CDC25B CDK2 inh
COc1ccc(Cl)cc1-n1nnc(-c2nc(-c3cccnc3)no2)c1N	0.4	.
O=S(=O)(NCCSCc1ccccc1Cl)c1c(Cl)sc(Cl)c1Br	.	-1.7
Cc1cccn2c(=O)c3cc(C(=O)NC4CCSC4=O)sc3nc12 (configuration not stated)	-0.75	-1.3
O=C(NCC1CCCO1)C1Sc2nnc(-c3ccccc3)n2NC1c1ccc(F)cc1 (configuration not stated)	2.4	-2.9
Cc1cc2cc3c(C)cc(=O)oc3c(C)c2o1	1.8	.
CC(=O)NC1=NN(C(C)=O)C(c2ccc(OCCOc3ccc(C)cc3C)c(Cl)c2)S1 (configuration not stated)	2.5	-1.1
CCCn1c(NC)nc2c1c(=O)n(C)c(=O)n2C	.	-1.9
O=C(Nc1ccc2c(c1)CCCN2C(=O)c1cccs1)c1cccs1	2.9	.
Cc1nn(C)c(C)c1CN(C)C(=O)c1cnn2c1NC(c1ccccc1)CC2C(F)(F)F (configuration not stated)	-0.21	-0.36
O=C(Nc1noc2ccccc12)c1ccccc1F	0.17	-0.96
O=C(O)c1cc(-c2cccc(F)c2)nc2n[nH]c(-c3ccc(Br)cc3)c12	2.4	.
O=C(Nc1ccc(Cl)cc1)NC1COc2ccccc2C1 (configuration not stated)	1.2	.
Cc1ccc2nc(-c3ccsc3)c(Nc3ccccc3)n2c1	.	-1.6
CN(C)CCNC(=O)c1ccc(Cn2c(SCc3ccc(F)cc3)nc3ccncc32)cc1	-0.67	-0.76
O=C(c1ccco1)N1CCN(C(=O)c2ccc(CS(=O)c3ccc(Br)cc3)o2)CC1 (configuration not stated)	1.6	.
C#CC(CCN1CCCCC1)(OC)c1ccccc1 (configuration not stated)	0.88	-0.68
Cc1noc(C)c1-c1nc(-c2ccccc2)no1	.	-0.98
c1ccc(NC2=NCCCCC2)cc1	2.1	0.44
O=C(Nc1ccccc1Cl)NC(c1ccccc1)c1nnc(-c2ccccc2)o1 (configuration not stated)	1.3	.
O=[N+]([O-])c1cccnc1NCc1ccc(F)cc1	0.51	-1.7
CCS(=O)(=O)c1nc(S(=O)(=O)c2ccc(C)cc2)c(NCCCOC(C)C)s1	1	-0.46
c1ccc(-c2nnc(SCCC3OCCCO3)o2)cc1	.	-2.6
Cc1nn(CC(=O)Nc2cc(F)ccc2F)c(=O)c2cccn12	1	-1.8
CNC(=O)N(C1=NCCCCC1)c1ccccc1	0.72	-1.4
Cc1ccccc1OCCSc1nc(-c2ccccc2F)nc2cc(=O)[nH]n12	0.27	.
COc1ccc(S(=O)(=O)N(CCC#N)CC2CCCO2)cc1OC (configuration not stated)	.	-0.1
COc1cc(CCc2nnc(-c3cccs3)o2)cc(OC)c1OC	.	-2
CCNCCNC(=O)c1c(O)c2ccccc2[nH]c1=O	1.2	.
O=C(N/N=C/c1c(F)cccc1Cl)C1CC1	.	-0.98
Cc1ccc(-n2c(C)c3c(C)nn4cc(C)cc4c3c2C)cc1	.	0.82
Cc1nnc2sc(-c3ccco3)nn12	-1.2	-0.64
Cc1ccc(Cc2c(C)nc(N3CCN(C)CC3)[nH]c2=O)cc1	-0.82	.
O=S1(=O)C[C@H](NC2CC2)[C@@H](S(=O)(=O)c2ccccc2)C1	-0.98	-1.6
CCCCNC(=O)C(C)N1C(=O)CCn2nc(C)cc21 (configuration not stated)	2.7	.
Cc1csc2nc(COC(=O)COc3ccc(F)cc3)cc(=O)n12	-0.24	.
Cc1oc2c(cc(NS(=O)(=O)c3ccc4c5c(cccc35)C(=O)N4)c3ccccc32)c1C(=O)OC(C)C	.	1.7
Cc1ccccc1COC(=O)CCC1=NS(=O)(=O)c2ccccc2N1	0.97	.
COC(=O)CSc1nnc(CSc2nc(C)cc(C)n2)o1	.	0.01
CN1C(=O)Cc2cc(S(=O)(=O)NCc3cccs3)ccc21	0.99	.
COc1ccc(-c2c(C)nn3c(N4CCN(C)CC4)cc(C)nc23)cc1OC	0.48	-2.1
CCCSc1nnc(NC(=O)c2cc(=O)c3cc(C)ccc3o2)s1	-0.47	-0.05
Cc1nn(C)c(NCCCN2CCOCC2)c1[N+](=O)[O-]	.	-2.1
O=C(NNC(=O)c1sc2ccccc2c1Cl)NC(=O)c1ccccc1Cl	.	-1.3
O=C(c1cnn2c(C(F)(F)F)cc(-c3ccco3)nc12)N1CCCC1c1ccccc1F (configuration not stated)	-4	-1.4
COc1cc2[nH]c3c(=O)n(CCCN4CCCCCC4)cnc3c2cc1OC	.	-0.96
CCCn1c(=O)c2c(nc3n2CCS3)n(C)c1=O	-0.45	0.27
Cc1ccc(S(=O)(=O)N2CCN(CCO)CC2)cc1-c1nnc2c3ccccc3c(C)nn12	-0.41	-1.2
COc1cccc(NC(=O)N2CCN3CCCCC3C2)c1 (configuration not stated)	0.8	.
O=C(COc1ccccc1)Nc1nnc(S(=O)(=O)N2CCCC2)s1	1.4	-0.27
CC(CCc1ccccc1)N1C(=S)NC2C=C(Cl)C=CC21 (configuration not stated)	.	3.6*
CC1CCN(CCCNC(=O)c2cc(=O)[nH]c3ccc(S(=O)(=O)N4CCCCC4)cc23)CC1	.	-0.74
Cc1ccc2oc(=O)c3cc(C(=O)N(Cc4ccco4)C4CCCCC4)sc3c2c1	.	-1.5
Fc1cccc(-n2c(CN3CCNCC3)nc3cccnc32)c1	1.6	.
Cc1cc2oc3c(c(=O)c2cc1C)C(c1ccc(C(C)C)cc1)N(CCCN1CCOCC1)C3=O (configuration not stated)	0.24	0.12
O=C(c1ccc(Cn2c(SCc3ccccc3F)nc3ccncc32)cc1)N1CCCC1	1.9	-0.66
CC1(C)CC(=O)c2cnc3c(C(=O)N4CCC(N5CCCCC5)CC4)cnn3c2C1	0.74	.
CC1CC(=O)Nc2cc(S(=O)(=O)NCc3ccc4c(c3)OCO4)ccc2S1 (configuration not stated)	1.7	.
CC1Cc2cc(S(=O)(=O)Nc3ccccc3F)ccc2N1C(=O)C1CCC1 (configuration not stated)	-1.3	.
C=CCn1c(SCC(=O)c2ccccc2)nc2sc3c(c2c1=O)CCCC3	2	-0.62
Cc1cc(C)n(C(=O)C2COc3ccccc3O2)n1 (configuration not stated)	0.82	-1.9
O=C(CC1(O)C(=O)Nc2ccccc21)c1cc(O)ccc1O (configuration not stated)	2	-0.34
COc1ccc(Oc2ccc([N+](=O)[O-])cc2C(=O)NNC(=O)c2ccc(Cl)cc2Cl)cc1	.	-0.15
